Mtb bLac sens: beta-lactam sensitization of Mtb H37Rv; M. tuberculosis H37Rv growth with meropenem, percent inhibition; hits of this screen are not shown here; inhibition, % at 25 µM; actives 0.27% (n = 330,000);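 active = about 74% or more and at least 40 points above the plate without the antibiotic, then above 30% in a dose series; inconclusive = first-round hits that could not be retested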;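 also: growth measured after seven days incubation then overnight dye step; 0% = bacteria only wells and 100% = bacteria with antibiotic; twin plates without the antibiotic show which effects depend on it; some results filed as inactive read as strong as hits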
YopH PTP inh: blocks Yersinia enterocolitica YopH tyrosine phosphatase; actives 0.16% (n = 140,000); inhibition, %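 (about 10 µM by stock and volumes)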; fluorescence Ex485/Em525;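 active = inhibition of 50% or more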;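 also: controls were vehicle for no effect and minimum signal wells for full effect; inactives centre near -20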
Mtb growth: M. tuberculosis H37Rv growth inhibitors, H37Rv strain (AID 1626); M. tuberculosis H37Rv growth inhibition; higher % means a stronger effect; one-dose inhibition, % at 10 µM; IC50 in µM for titrated hits; actives 0.95% (n = 220,000);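 active = confirmed in a dose series; inconclusive = inhibition above 80% but not taken into the dose series; inactive = below 80% or under 30% at every dose of the series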;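 also: bacteria incubated seven days before Alamar blue readout; 0% = bacteria only wells and 100% = bacteria with antibiotic wells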
RecA intein inh: inhibitors of M. tuberculosis RecA intein splicing | inhibition, %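 (about 9 µM by stock and volumes)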 | actives 0.75% (n = 290,000) | P9WHJ3 | cell-free RecA intein splicing, fluorescence; in the data active = inhibition above about 30%; inconclusive = no clear call, values can overlap the other calls;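 also: 0% = vehicle wells and 100% = reference inhibitor control wells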
Target sequence (P9WHJ3 whole entry, looked up): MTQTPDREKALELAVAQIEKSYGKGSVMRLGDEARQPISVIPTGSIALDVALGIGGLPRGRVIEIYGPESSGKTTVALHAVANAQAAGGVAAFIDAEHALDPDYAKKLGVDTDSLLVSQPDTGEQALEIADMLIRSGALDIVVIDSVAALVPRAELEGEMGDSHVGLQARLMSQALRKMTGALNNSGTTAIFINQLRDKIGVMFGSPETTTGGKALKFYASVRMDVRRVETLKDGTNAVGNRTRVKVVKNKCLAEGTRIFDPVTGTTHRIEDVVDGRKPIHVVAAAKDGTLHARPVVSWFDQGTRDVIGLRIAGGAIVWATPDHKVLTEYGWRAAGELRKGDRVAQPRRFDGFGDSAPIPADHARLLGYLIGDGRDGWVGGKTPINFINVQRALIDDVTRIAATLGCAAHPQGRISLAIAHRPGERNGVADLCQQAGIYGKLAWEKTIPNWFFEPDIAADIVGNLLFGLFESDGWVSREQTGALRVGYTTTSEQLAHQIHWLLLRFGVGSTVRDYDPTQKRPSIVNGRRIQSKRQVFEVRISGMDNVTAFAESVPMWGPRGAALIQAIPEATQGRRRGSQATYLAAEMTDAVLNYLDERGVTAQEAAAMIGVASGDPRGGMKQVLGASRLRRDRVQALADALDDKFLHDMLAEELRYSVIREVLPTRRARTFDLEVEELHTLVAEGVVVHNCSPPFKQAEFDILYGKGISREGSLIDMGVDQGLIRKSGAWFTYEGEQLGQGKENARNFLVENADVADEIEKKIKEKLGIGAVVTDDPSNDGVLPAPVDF
Arbovirus inh: antivirals against arbovirus infection | arbovirus infection cell-based antiviral screen | inhibition, % at 10 µM | actives 0.37% (n = 200,000) | AID 1251;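 active = inhibition from about 30%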;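 also: bluetongue infection of BSR cells; cell survival read as ATP light after 72 h; 0% = infected wells without compound and 100% = uninfected wells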
Arbovirus inh repeat: also measured in Arbovirus inh; calls as there; inhibition, %; measured here: 10K subset replicate screen; many hits read low in the repeat;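 first of two repeat runs on a subset; 0% = infected and 100% = uninfected wells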
Numbers without * were called inactive; i = inactive; ? = inconclusive; . = not tested or not shown. Not all compounds are listed; rates above refer to the full screens.

SMILES	Mtb bLac sens	YopH PTP inh	Mtb growth	RecA intein inh	Arbovirus inh	others
CC(Sc1nccn1C)C(=O)c1ccc(Br)cc1 (stereo unspecified)	-1	.	.	-2.6	.
CCOC(=O)c1cn(CC(=O)Nc2cccc(F)c2)nn1	-2	.	-3%	-0.6	3
CC1CN(C(=O)CCC(=O)NC2CCN(Cc3ccccc3)CC2)c2ccccc2O1 (stereo unspecified)	22	.	.	-3.1	.
Fc1ccccc1Nc1nc2ccccc2n2nnnc12	1	-38	4%	-2.6	1
CN(C)S(=O)(=O)c1ccc(C(=O)N2CC(=O)Nc3ccc(F)cc3C2c2ccc(F)cc2)cc1 (stereo unspecified)	-5	.	.	0.6	.
C=CCN1C(=O)C(O)(CC(=O)c2ccc(-n3cccc3)cc2)c2ccccc21 (stereo unspecified)	-4	-3	3%	5.2	-6
Cc1cc(N(CCO)CCO)nc(-n2nc(C)cc2C)n1	-4	0	6%	1.1	-3
O=c1[nH]c(=S)n(C2CC2)c(O)c1C=Nc1ccc2c(c1)OCO2	61	.	74%	0.1	.
O=C(NCCc1ccccc1)c1ccc(CS(=O)(=O)Cc2ccc(F)cc2)o1	1	.	.	0.8	.
Cc1cc(OCC(=O)Nc2ccncc2)cc(C)c1Cl	2	.	.	-3.0	.
CCCOC(=O)CC1C(=O)NCCN1Cc1cc(OC)cc(OC)c1 (stereo unspecified)	-7	.	2%	0.7	8
COc1ccc(NC(=O)C(=O)NCCO)cc1Cl	-1	-22	2%	0.5	2
CCOc1cc(NC(=S)NCc2ccco2)c(OCC)cc1NC(C)=O	9	-19	-3%	0.3	-2
O=C(NC1CCCCC1)C1CCCN(S(=O)(=O)c2ccc(Br)s2)C1 (stereo unspecified)	-1	.	1%	-3.8	5
COc1ccc(CNC(=O)c2nccnc2CO)cc1	-8	.	.	-4.6	.
Cc1ccnc(NC(=O)c2cccc(NS(=O)(=O)c3ccccc3C)c2)c1	.	-25	-11%	.	-9
O=c1nc2c(O)cccn2c2c1c(=O)[nH]c1ccccc12	.	-28	6.7µM*	i	-14
COCCCn1c(SCC(=O)Nc2ccc(NC(C)=O)cc2)nc2sc3c(c2c1=O)CCC3	2	.	.	0.5	.
O=C(Nc1cccc(Cl)c1)c1ccc(OC(=S)N2CCOCC2)cc1	4	.	-2%	-2.8	-4
CCCCCNS(=O)(=O)c1cc(C)ccc1OC	-3	-15	9%	1.8	6
CCN(CC)S(=O)(=O)c1ccc(N2CCCC2)c(NC(=O)c2ccc(N3CCCC3=O)cc2)c1	5	.	.	4.2	.
CCCCc1cc(=O)oc2cc(C)cc(OCC(=O)Nc3cccnc3)c12	-2	.	.	-2.4	.
Cc1cc(C)n2nc(CC(=O)NCc3ccccc3Cl)nc2n1	-3	-19	2%	-1.4	-4
O=C(Nc1ccccc1N1CCCC1)C1CCN(C(=O)c2ccc(F)cc2)CC1	-4	.	.	0.0	.
COc1ccc(NS(=O)(=O)c2ccc(NC(C)=O)cc2)c(OC)c1	-5	.	-4%	-0.1	-4
COc1cc(SC#N)ccc1N=Cc1c(C)[nH]n(-c2ccc(C)cc2C)c1=O	71	-15	-47%	-3.0	-16
CC(C)C(NC(=O)OCc1ccccc1)C(=O)N1CCOCCOCCOCC1 (stereo unspecified)	4	.	-5%	2.5	-1
Cc1ccc(COc2ccccc2C(=S)N2CCCC2)cc1	5	.	8%	2.1	4
CC(Oc1ccccc1F)C(=O)NNC(=O)CCNC(=O)c1ccco1 (stereo unspecified)	-2	.	.	-0.6	.
CCOc1ccc(NC(=O)c2ccc3c(c2)N(Cc2ccc(F)cc2)C(=O)CS3=O)cc1 (stereo unspecified)	-8	-3	76%	2.1	-36
C=CCOc1ccc(C2C(C(=O)c3ccco3)=C(O)C(=O)N2CCCN(CC)CC)cc1 (stereo unspecified)	-4	-27	-4%	3.1	-1
CN(C)CCN(C(=O)c1ccc(S(=O)(=O)N(C)c2ccccc2)cc1)c1nc2cc3c(cc2s1)OCO3	-6	.	.	0.8	.
O=c1nccc(N/N=C/c2ccccc2O)[nH]1	98	.	.	-4.3	.
CCCCn1c(SCC(=O)NC2CCCC2)nnc1-c1ccco1	2	.	.	-1.0	.
COc1ccccc1N1C(=O)[C@@H]2C(C(=O)CN3C(=O)c4ccccc4C3=O)=NN[C@@H]2C1=O	-8	.	-8%	0.9	.
COc1cccc(NC(=O)c2ccc3c(c2)N(C)CCS3)c1	0	.	.	-5.0	.
COc1ccccc1NC(=O)CSc1nnc(-c2ccccn2)o1	-4	.	.	-0.4	.
CCn1c(SCC(=O)N2CCOCC2)nc2c(c1=O)SC(C)C2 (stereo unspecified)	-2	-38	17%	-4.1	4
COc1ccc(S(=O)(=O)N(CC(=O)NCC2CCCO2)C2CCCCC2)cc1OC (stereo unspecified)	-2	.	.	-1.8	.
COC(=O)c1cc(OC)c(OC)c(OC)c1NC(=O)c1ccc(S(=O)(=O)N(C)C)cc1	2	-18	-6%	-8.6	-6
N=C1C(c2nc3ccccc3s2)=C(O)CN1C1CCC(O)CC1 (stereo unspecified)	8	.	-12%	-1.4	.
O=C(CC1C(=O)NCCN1C(=O)Nc1ccc(Cl)cc1)Nc1ccc(F)cc1 (stereo unspecified)	3	.	-8%	0.7	-31
Fc1c(F)c(C(F)(F)F)c(F)c(F)c1N1CCN(c2ccc3nnc(C(F)(F)F)n3n2)CC1	10	-34	9%	13	11
O=C(c1cc2n(n1)C(C(F)(F)F)CC(c1ccc(F)cc1)N2)N1CCCC1 (stereo unspecified)	5	-50	2%	0.9	15
COc1cc(/C=C/C(=O)O)cc(OC)c1O	2	.	-6%	-4.7	.
O=C(CCCc1nc(-c2ccc(Cl)cc2)no1)N1CCOCC1	-2	-23	1%	-11	4
CC1=C(C(=O)N(C)CCC#N)C2(CCCCC2)OC1=O	-1	-47	1%	.	0
CCOc1cc(/C=C2\N=C(C)OC2=O)cc(Br)c1OCCc1ccccc1	3	-4	11%	2.3	-4
O=C(Nn1c(O)c(C=C2N=c3ccccc3=N2)sc1=S)c1ccc(Cl)cc1	1	-42	.	-1.6	-9
O=c1[nH]c(=S)n(C2CC2)c(O)c1C=NCC1CCCO1 (stereo unspecified)	3	.	-1%	1.1	.
Cn1c(O)c(C(=O)c2ccccc2)c(=O)n(C)c1=O	-10	-37	-2%	2.4	2
CCOc1ccc(C(OC(=O)c2ccco2)C(=O)NCc2ccc(C)cc2)cc1 (stereo unspecified)	10	-4	10%	3.6	7
COc1ccc(CN2CC3CC(C2)c2cccc(=O)n2C3)cc1OC (stereo unspecified)	-1	-36	-2%	-2.1	5	Arbovirus inh repeat=2
Nc1ncnc2nc(SCCN3CCCCC3)[nH]c12	4	-15	.	-2.8	6
CCc1ccccc1N1CCN(S(=O)(=O)c2cc(OC)ccc2OC)CC1	2	-24	2%	12	14
O=C(COc1ccccc1)NNC(=O)c1cc2ccccc2oc1=O	.	-11	17%	-0.5	-8
Cc1ccc(N(C)C(=O)CCS(=O)(=O)c2cc3c(cc2Cl)NC(=O)CO3)cc1	4	.	.	0.8	.
N#Cc1ccccc1NC(=O)COC(=O)/C=C/c1cn(-c2ccccc2)nc1-c1ccc(Cl)cc1	.	.	9%	.	-10
Cc1cc(C)c2cc(CNC3CCCC3)c(Cl)nc2c1	-7	.	10%	-2.7	18
Cc1cccc(C(=O)N[C@H](C(=O)Nc2ncc(C)s2)C(C)C)c1	1	.	9%	3.3	-4

Molecules listed so far that contain a CF3 group:
SMILES	Mtb bLac sens	YopH PTP inh	Mtb growth	RecA intein inh	Arbovirus inh	others
Fc1c(F)c(C(F)(F)F)c(F)c(F)c1N1CCN(c2ccc3nnc(C(F)(F)F)n3n2)CC1	10	-34	9%	13	11
O=C(c1cc2n(n1)C(C(F)(F)F)CC(c1ccc(F)cc1)N2)N1CCCC1 (stereo unspecified)	5	-50	2%	0.9	15

Returning to the listing; the 6 compounds before the break are reprinted first.
SMILES	Mtb bLac sens	YopH PTP inh	Mtb growth	RecA intein inh	Arbovirus inh	others
CCc1ccccc1N1CCN(S(=O)(=O)c2cc(OC)ccc2OC)CC1	2	-24	2%	12	14
O=C(COc1ccccc1)NNC(=O)c1cc2ccccc2oc1=O	.	-11	17%	-0.5	-8
Cc1ccc(N(C)C(=O)CCS(=O)(=O)c2cc3c(cc2Cl)NC(=O)CO3)cc1	4	.	.	0.8	.
N#Cc1ccccc1NC(=O)COC(=O)/C=C/c1cn(-c2ccccc2)nc1-c1ccc(Cl)cc1	.	.	9%	.	-10
Cc1cc(C)c2cc(CNC3CCCC3)c(Cl)nc2c1	-7	.	10%	-2.7	18
Cc1cccc(C(=O)N[C@H](C(=O)Nc2ncc(C)s2)C(C)C)c1	1	.	9%	3.3	-4
CCN(CC)CCCNC1=C(Cl)C(=O)c2ccccc2C1=O	5	.	-2%	14	-29
NC(=O)C1CCCN(Cc2ccc3ccccc3c2)C1 (stereo unspecified)	9	.	.	-0.7	.
CCN1CCN(Cc2ccc(C)cc2C)CC1	-28	-29	1%	0.7	3
CCOC(=O)C1(Cc2cccc(F)c2)CCN(Cc2cnn(CC)c2)CC1	-4	.	-3%	-0.5	-8
Cc1cccc(OCCCn2ccnc2)c1	5	-29	-12%	-3.3	7
NCCCCc1cn(CC(=O)N2CCNCC2)nn1	-4	.	-16%	1.2	3
Cc1c(C(=O)N(C)c2ccccc2)oc2c1C(O)CC(C)(C)C2 (stereo unspecified)	3	.	.	-0.1	.
COc1cc(/C=C2/C(=N)N3C=CSC3=NC2=O)ccc1OCCCOc1ccccc1C	11	-10	2%	0.3	-7
COc1cccc(COC(=O)C2CC(=O)N(Cc3ccc(C)cc3)C2)c1OC (stereo unspecified)	82	.	.	-3.8	.
COC(=O)Cc1ccc(NC(=S)N2CCC(Cc3ccccc3)CC2)cc1	2	.	.	3.7	.
Cc1ccc(-c2ccc(/C=N/NC(N)=S)o2)cc1	96	.	?	7.0	.
COc1cc(C(=O)NNC(=S)NC(=O)/C=C/c2ccccc2)cc(OC)c1OC	-5	.	-4%	-1.0	.
COc1cccc(C(=O)Nc2cc3c(cc2Cl)OCCCO3)c1	0	-15	5%	2.1	-10
CCc1ccc(C(=O)C23CN4CN(CN(C4)C2)C3)cc1	-9	-21	8%	.	-1
CCCC(=O)Nc1ccccc1NC(=O)c1ccc(OC(C)=O)cc1	-5	.	1%	3.3	-1
COc1cc(-c2n[nH]c(=S)n2-c2ccccc2C(F)(F)F)cc(OC)c1OC	-8	.	-9%	-3.5	.
O=C(NCCCN1CCOCC1)c1ccco1	3	-47	2%	-2.0	5	Arbovirus inh repeat=6
CCOc1ccc(Br)cc1S(=O)(=O)Nc1ccc(C(=O)OC(C)C(=O)N(C)c2ccccc2)cc1 (stereo unspecified)	0	-11	5%	0.5	-19
CCC(=O)N(CC(=O)Nc1sc(C)c(C)c1C(N)=O)Cc1ccc(F)cc1	1	.	2%	-1.0	.
O=c1[nH]c2ccccc2n1Cc1ccccc1	-4	-56	1%	-0.3	-3
O=C(CS(=O)(=O)c1ccccc1)Nc1nccs1	3	.	.	4.1	.
CCOc1ccccc1C(c1c(O)nc(SC)[nH]c1=O)c1c(O)nc(SC)[nH]c1=O	7	.	.	-0.5	.
CC(=O)Nc1ccc(NC(=O)c2ccc(C3SCC(=O)N3CCc3ccccc3)cc2)cc1 (stereo unspecified)	34	-21	>100µM*	7.4	-15
CCCCC(=O)NC(c1ccc(Cl)cc1Cl)c1ccc2cccnc2c1O (stereo unspecified)	1	.	.	0.0	.
CN(Cc1ccc(Cl)c(Cl)c1)C(=O)CN1C(=O)NC2(CCCC2)C1=O	-4	.	.	-0.2	.
CC1CCc2c(sc(NC(=O)c3ccc(Cn4cc(Br)cn4)o3)c2C(N)=O)C1 (stereo unspecified)	?	-10	9%	1.6	-9
COc1cccc(CNC(=O)c2ccc(OCC(=O)N3CCOCC3)c(OC)c2)c1	1	.	.	-4.8	.
COc1ccccc1CNC(=O)Cn1cc2c(n1)CCCC2	1	-11	-6%	-7.5	11	Arbovirus inh repeat=-1
OC(Cn1nnc2ccccc21)Cn1c(C(F)(F)F)nc2ccccc21 (stereo unspecified)	-18	-4	-2%	0.6	13
Cc1c(C)c(C)c(S(=O)(=O)N2CCNCC2)c(C)c1C	1	.	-7%	0.6	-16
COC(=O)CC1C(=O)NCCN1Cc1cn(-c2ccc(C)cc2)nc1-c1cccc(C)c1 (stereo unspecified)	0	.	3%	3.6	-4
COC(=O)C1(O)CC(C(C)C)=NN1C(=O)c1ccc(Cl)cc1 (stereo unspecified)	?	-25	-6%	0.8	0
N#CCCn1cc(C(=O)Nc2ccc(F)cc2)c(-c2ccc([N+](=O)[O-])cc2)n1	4	.	2%	-1.6	-6
CCc1nc(SCC(=O)NC2CC2)c2c(C)c(C)sc2n1	0	.	.	-0.5	.
